Source: PubChem
Six1-Eya2 blk: blocks human Six1 binding to Eya2. AlphaScreen GST-Six1/His-Eya2 binding, biochemical; stronger effect = lower value; control for the full effect not named in the record. AID 651725. 360,000 compounds, 0.56% hits. activity change, % (no concentration beside the values). Q15475+O00167; in the data active = activity change below about -65%; inconclusive = about -30% to -65%; inactive = above about -30%; also: % is scaled to controls: 0 for no effect and ±100 for the full control effect
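Compounds are tested against tagged Six1 and Eya2 proteins bridged by glutathione donor and nickel acceptor beads; after a one-hour incubation at 37 °C without light, AlphaScreen emission is recorded.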
TRPML1 inh: blocks the human TRPML1 channel; Q9GZU1; TRPML1-inducible cells, Ca2+ dye fluorescence, FDSS; stronger effect = lower value; inhibition of EC80 agonist-evoked calcium signal; activity change, negative = inhibition, % (no concentration beside the values); 390,000 compounds, 0.02% hits; AID 624415; in the data active means activity change below about -50%; inconclusive means about -30% to -50%; inactive means above about -30%;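 also: stimulus is agonist 54-4 at its EC80 concentration; % is scaled to controls: 0 for no effect and ±100 for the full control effect; compound concentration not given in the record; the text of the record puts the active cut at -80%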
Target sequence (Q9GZU1 whole entry, looked up): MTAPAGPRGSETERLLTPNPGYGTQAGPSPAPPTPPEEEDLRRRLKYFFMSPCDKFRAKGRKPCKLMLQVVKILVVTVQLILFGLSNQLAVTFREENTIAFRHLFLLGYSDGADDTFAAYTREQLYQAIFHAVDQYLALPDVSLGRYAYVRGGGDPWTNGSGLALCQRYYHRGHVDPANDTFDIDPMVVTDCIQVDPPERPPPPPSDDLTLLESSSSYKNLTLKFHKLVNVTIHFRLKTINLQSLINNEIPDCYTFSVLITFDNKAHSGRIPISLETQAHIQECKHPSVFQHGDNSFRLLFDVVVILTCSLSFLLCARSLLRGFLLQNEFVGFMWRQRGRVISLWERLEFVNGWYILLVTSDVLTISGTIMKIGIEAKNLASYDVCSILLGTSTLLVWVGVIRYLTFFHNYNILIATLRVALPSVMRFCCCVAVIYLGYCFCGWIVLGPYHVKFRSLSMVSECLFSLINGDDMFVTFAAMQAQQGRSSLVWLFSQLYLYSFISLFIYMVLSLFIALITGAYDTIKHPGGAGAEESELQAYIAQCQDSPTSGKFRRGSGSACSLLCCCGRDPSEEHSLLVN
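TRPML1-DL cells, Tet-induced overnight (~16 h, 37 °C) at 1,500 cells/well, were loaded with Ca8 no-wash dye plus quencher for 45-90 min at room temperature. Compounds were pinned during FDSS kinetic reading; agonist 54-4 at EC80 (4 uM final) then added.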
D2 PAM: human D2 receptor positive allosteric modulation | P14416 | DiscoveRx D2 beta-arrestin cells, luminescence, 90 min; 100% = 57 uM dopamine signal | potentiation, % (concentration not given with the values) | 360,000 compounds, 0.23% hits | AID 624464; active = potentiation of 50% or more; inconclusive = 30% to 50%; inactive = 30% or less;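 also: tested on top of an EC20 dose of dopamine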
Target sequence (P14416 whole entry, looked up): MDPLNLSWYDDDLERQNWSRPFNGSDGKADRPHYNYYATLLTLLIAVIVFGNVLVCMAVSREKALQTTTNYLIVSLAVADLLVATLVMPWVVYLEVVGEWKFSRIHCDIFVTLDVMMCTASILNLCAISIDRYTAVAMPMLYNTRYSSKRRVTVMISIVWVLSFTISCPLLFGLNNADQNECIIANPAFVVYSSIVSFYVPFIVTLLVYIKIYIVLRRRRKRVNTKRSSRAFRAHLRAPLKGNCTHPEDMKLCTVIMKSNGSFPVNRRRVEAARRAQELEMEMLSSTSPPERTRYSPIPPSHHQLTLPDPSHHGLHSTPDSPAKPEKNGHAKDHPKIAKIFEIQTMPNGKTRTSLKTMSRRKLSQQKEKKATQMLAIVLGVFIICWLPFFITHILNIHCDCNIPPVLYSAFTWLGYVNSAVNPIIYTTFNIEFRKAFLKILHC
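PathHunter beta-arrestin assay in DiscoveRx D2 cells. Compounds were added with an EC20 of dopamine (50 nM final) for 90 min at 37 deg C. Luminescence was read 1 h after detection reagent, with 57 uM dopamine as the EC100 control.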
D2 agonist: agonists of human D2 dopamine receptor (beta-arrestin); AID 624465; DiscoveRx PathHunter D2 beta-arrestin, luminescence, 90 min; 100% = 57 uM dopamine signal; activation, % (concentration not given with the values); 360,000 compounds, 0.084% hits; in the data active = activation above about 40%; inconclusive = about 15% to 40%; inactive = below about 15%; also: the text of the record calls up to 30% inactive
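DiscoveRx PathHunter D2 beta-arrestin cells (2,100/well) attached overnight, then compound-stimulated 90 min at 37 C in HBSS/10 mM HEPES/0.1% Tween-20 buffer; beta-galactosidase complementation read by luminescence after 1 h at ambient temperature. Dopamine 57 uM final (EC100) as control.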
PINK1 expr mod: modulators of PINK1 expression. 410,000 compounds, 0.2% hits. AID 624263. Potency, µM (top dose mostly 76.6 µM), without a hit: at the top dose activation (PINK1 increase), actives largely listed as activators. PINK1 immunofluorescence, high-content cytometry, 24 h; active = well fitted activation curve with a large enough effect; inconclusive = small, poorly fitted or top-dose-only effect; inactive = flat fitted curve, though single readings scatter; cell line not stated here;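 also: potency is read from the fitted curve at half-maximal effect; % of control where 0% means no effect; nearly all actives have a fitted effect of over 65% in size; a mitochondrial uncoupler was the plate control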
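PINK1 protein, normally rapidly degraded, was detected by immunofluorescence after 24 hour compound treatment of a stable cell line. Titration data (5 concentrations) came from laser-scanning cytometry, with CCCP-treated wells as controls.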
TRPML1 agonist: human mucolipin-1 channel agonism | Q9GZU1 | TRPML1-expressing cells, Ca2+ dye fluorescence, FDSS; host cell line not named in the record; reference of the full effect not given here | activation, % (no concentration beside the values) | 410,000 compounds, 0.12% hits; in the data active = activation above about 50%; inconclusive = about 30% to 50%; inactive = below about 30%; also: 0% is about no effect; the text of the record puts the active cut at 80%
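TRPML1-DL cells, Tet-induced overnight (~16 h, 37 degrees C), loaded 45-90 min at room temperature with Ca8 no-wash calcium dye plus quencher. FDSS fluorescence: 10 s baseline, compound pin-transfer, 110 s agonist read, then EC80 54-4 (4uM final) and 110 s antagonist read.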
Numbers without * were called inactive; u = inconclusive; x = no result given; [ ] = another dose, or the depositor's remark.

SMILES	Six1-Eya2 blk	TRPML1 inh	D2 PAM	D2 agonist	PINK1 expr mod	TRPML1 agonist
COc1ccc(OC)c(Cc2nnc(CCC(=O)N3CCN(C4CCCC4)CC3)o2)c1	-6	1	-7	-2.1	0.3%	0.0
CCCC(=O)C1=C(O)C(C(=O)OC)C(C)(C)CC1=N (configuration not stated)	-3	-20	-8	-3.7	0.9%	1.0
O=C(NC(=O)c1ccccc1N1CCCCC1)Nc1ccc(Br)cc1	3	9	-3	-1.3	2.7%	1.0
CC1(C)CC(=O)C/C(=N\NC(=O)C2CC2c2ccccc2)C1 (configuration not stated)	-7	23	-1	-2.2	2.7%	1.1
O=C(Cn1cc([N+](=O)[O-])cn1)NCc1ccccc1Cl	-1	-4	-3	-0.8	3.0%	0.7
Cn1c(C(=O)N2CCCC(C(=O)NCc3ccccc3)C2)cc2sccc21 (configuration not stated)	-1	0	-5	0.8	-1.3%	-1.4
CCn1c(COc2ccc(OC)cc2)nc2ccccc21	8	20	16	0.4	-0.7%	-0.3
CCOC(=O)c1c(-c2ccc(C)cc2)csc1NC(=O)c1nc(SCC)ncc1Cl	x	4	x	x	2.1%	9.6
CN(C(=O)Cn1cnc([N+](=O)[O-])n1)C1CCCCC1	-5	-7	-3	-1.9	2.0%	-0.4
COc1ccccc1N1CCN(CC(=O)c2c[nH]c3ccccc23)CC1	4	-13	-17	0.0	0.2%	3.7
O=C(Nc1ccccc1C(=O)OCn1nnc2ccccc2c1=O)c1ccco1	-8	-21	-2	-1.2	-0.7%	0.4
O=C(NCc1ccccc1Cl)c1cnn2cccnc12	-2	-14	-19	0.5	-0.9%	1.1
COc1cc(NC(=O)Cn2c(=O)n(CC(=O)NCCc3ccc(OC)c(OC)c3)c(=O)c3sccc32)cc(OC)c1	x	-3	x	x	0.3%	-0.2
COc1cc(CN(C)c2ncnc3sccc23)ccc1OC(F)F	-9	-10	-4	11	0.4%	0.0
CC(C)(C)C(=O)NCc1ccc(C(=O)CSc2nnc(C3CC3)n2C2CC2)s1	4	15	-5	-3.5	1.5%	0.0
CCCCc1nnc(NC(=O)C2=COCCO2)s1	3	12	3	1.0	0.3%	0.1
O=C1N=C(N2CCc3ccccc3C2)S/C1=C\c1ccc(O)cc1	-6	56	-20	-3.2	0.8%	0.9
COc1ccc(-n2c(SCC(=O)Nc3nccs3)nnc2-c2ccc(Cl)cc2)cc1	-1	-3	-4	3.9	8.3%	1.5
O=C(NCCCN1CCOCC1)c1ccc2c(c1)N(Cc1ccccc1)CCS2	-10	-10	-16	-5.5	0.2%	-0.5
Cc1ccc2nc(SC(C)C(=O)N3CCOCC3)[nH]c2c1 (configuration not stated)	9	-27	u	-1.0	-0.4%	-1.0
O=C(CSc1nc2nn(-c3ccccc3)c(=O)c-2c2n1CCCCC2)Nc1ccc(F)c(F)c1	-12	-3	-2	-0.2	5.1%	1.6
COc1cc(-c2nnc3sc(Cc4ccccc4)nn23)cc(OC)c1OC	-20	28	-21	-2.9	1.7%	2.6
COc1ccc(-c2ccc(NC(=O)c3ccco3)cc2)nn1	-2	-26	0	1.2	0.1%	0.6
COCCCNC(=O)c1ccc(Cn2c(=O)c3ccccc3n(Cc3c(C)cc(C)cc3C)c2=O)cc1	x	1	x	x	1.1%	-0.1
COc1cc(CC(CC(=O)c2ccc3c(c2)OCO3)C(=O)O)cc(OC)c1OC (configuration not stated)	-6	-4	-1	-4.0	4.6%	0.0

New compounds follow
SMILES	Six1-Eya2 blk	TRPML1 inh	D2 PAM	D2 agonist	PINK1 expr mod	TRPML1 agonist
CCCCOc1ccc(Br)cc1CSC(=N)N	30	20	-16	-6.3	1.9%	4.6
CSCCC(NC(=O)c1ccco1)C(=O)Nc1ccc(C)cn1 (configuration not stated)	-4	-3	1	1.5	2.5%	0.0
OCC1OC2C(NC(=S)N2c2ccccc2)C(O)C1O (configuration not stated)	4	-6	-13	-0.7	4.3%	0.5
C(=N\NCc1ccccc1)/c1ccc2ncccc2c1	8	-5	4	2.9	-0.1%	0.7
Cc1ccsc1/C=N/Nc1ncc(Cl)cc1Cl	-10	-2	-8	-3.2	12%	0.2
O=C(CN1CCN(Cc2ccccc2F)C1=O)NCC1CCCO1 (configuration not stated)	2	x	5	-2.3	-0.6%	x
Cc1ccc(C(=O)c2cnc3cc4c(cc3c2S(=O)(=O)c2ccccc2)OCCO4)cc1	-7	-6	-5	-2.2	-0.8%	0.4
COc1ccc(NC(=O)Cn2c(C)csc2=O)c(OC)c1	1	-7	-2	-2.5	-1.2%	0.1
NC(=O)C1(c2ccccc2)CCOCC1	-6	-13	-7	1.8	1.1%	1.6
O=C(C1CC1)N(Cc1ccco1)c1nc(-c2ccccc2)cs1	-2	3	2	-0.2	-0.9%	1.9
Cc1ccc(S(=O)(=O)N2CCc3cc(C(=O)NCCc4ccccc4)ccc32)cc1	x	16	x	x	0.0%	1.5
O=C(Nc1ccc2c(c1)OCO2)N1CCOCC1	-1	7	8	-0.4	4.8%[38.3 µM]	-0.4
Cc1ccc(C2C(C(=O)c3sc(-c4ccccc4)nc3C)=C(O)C(=O)N2CCN(C)C)o1 (configuration not stated)	-1	-11	-8	-4.3	0.5%	0.5
O=[N+]([O-])c1ccccc1/C=C/C=N/n1c(-c2ccccc2F)n[nH]c1=S	-22	11	-21	-1.6	1.8%	0.2
Cc1ccc(S(=O)(=O)NC(=O)NC(C)Cc2ccccc2)cc1 (configuration not stated)	3	4	-4	0.5	-0.8%	-0.6
c1ccc2[nH]c(SCC3CCCCO3)nc2c1 (configuration not stated)	14	-17	-8	-7.6	-0.5%	-0.2
CCc1ccc2oc(-c3ccc(C)c(NC(=O)Cc4ccccc4)c3)nc2c1	x	-7	x	x	3.5%	-0.3
COc1cccc(CNC(=O)C2Cc3cc(S(=O)(=O)N4CCCC4)ccc3N2C(C)=O)c1OC (configuration not stated)	6	14	-6	8.8	-0.1%	0.6
N#Cc1cccc(-c2csc(C(O)c3ccc(F)cc3)n2)c1 (configuration not stated)	6	4	2	-3.2	1.9%	0.1
COc1ccc(OC)c(NC(=O)C2CCN(S(=O)(=O)c3ccc4c(c3)CCCC(=O)N4)CC2)c1	x	2	x	x	-0.2%	5.1
Fc1ccc(/C=N/NC(=S)NCCc2ccccc2)cc1F	1	16	-3	-7.0	0.3%	-0.2
O=C(c1cc2ncc(CCCl)cn2n1)N1CCCCCC1	-1	-10	19	2.6	1.4%	0.1
COc1ccc(Cn2c(CCC(=O)NCc3cccc(Cl)c3)nc3cccnc32)cc1	x	5	x	x	0.4%	1.2
CS(=O)(=O)N1CCN(c2ccccc2NC(=O)c2cc3ccccc3o2)CC1	11	12	25	-12	0.8%	-0.8
CN1CCC(OC(=O)c2cc3cc(Cl)cc(Cl)c3oc2=O)CC1	-2	x	2	-1.9	8.2%	x

The closing 5 compounds of the part before are carried over, then new ones follow:
SMILES	Six1-Eya2 blk	TRPML1 inh	D2 PAM	D2 agonist	PINK1 expr mod	TRPML1 agonist
Fc1ccc(/C=N/NC(=S)NCCc2ccccc2)cc1F	1	16	-3	-7.0	0.3%	-0.2
O=C(c1cc2ncc(CCCl)cn2n1)N1CCCCCC1	-1	-10	19	2.6	1.4%	0.1
COc1ccc(Cn2c(CCC(=O)NCc3cccc(Cl)c3)nc3cccnc32)cc1	x	5	x	x	0.4%	1.2
CS(=O)(=O)N1CCN(c2ccccc2NC(=O)c2cc3ccccc3o2)CC1	11	12	25	-12	0.8%	-0.8
CN1CCC(OC(=O)c2cc3cc(Cl)cc(Cl)c3oc2=O)CC1	-2	x	2	-1.9	8.2%	x
COc1cc(CC(=O)OCC(=O)NCc2ccc(C)cc2)cc(OC)c1OC	2	-1	-2	5.2	-0.9%	-0.7
C[C@H](NC(=O)c1nc[nH]c1C(=O)OCc1ccccc1)c1ccccc1	-7	-11	-3	-2.4	3.3%	-0.6
O=S(=O)(Nc1nc(SCc2ccc(Cl)cc2)n[nH]1)c1ccc(F)cc1	-15	12	-10	-3.0	-1.2%	0.4
COC(=O)c1[nH]c2ccccc2c1NC(=O)CN1CCC(C(N)=O)(N2CCCCC2)CC1	10	6	-9	-0.2	0.5%	0.2
O=C(OCC(=O)c1c[nH]c2ccccc12)c1cc(S(=O)(=O)N2CCOCC2)ccc1F	-6	2	8	0.2	-0.6%	0.4
CCCCN(CCCC)CC(O)COc1ccccc1Br (configuration not stated)	12	-11	-39	-1.6	4.4%	-0.1
Cc1onc(-c2ccccc2Cl)c1C(=O)NCCCc1ccccc1	5	6	6	0.0	1.7%	0.6
COC(C[C@H]1O[C@H]1C(=O)[C@H](C)OCc1ccccc1)OC	-8	-8	-7	-1.9	1.1%	-0.2
O=C(Cn1c(=O)n2nc(-c3ccccc3)nc2c2ccccc21)Nc1ccccc1C(F)(F)F	x	15	x	x	2.1%	-0.2
O=C(CN1CCSCC1)c1c[nH]c2ccccc12	-6	4	-14	-1.3	-1.3%	-0.7
Cc1ccc(CNc2oc(-c3cccs3)nc2C#N)cc1	-6	19	-13	0.3	0.8%[38.3 µM]	4.0
CCOC(=O)[C@]12CCC=C1N(Cc1cccc3ccccc13)C(=O)[C@H](CC(=O)N1CCCC1)C2	-4	x	x	x	0.1%	-0.7
COc1cc(N)c(Cl)cc1C(=O)OCC(=O)N1CCc2ccccc21	1	-12	-3	0.7	0.6%	0.8
S=C(Nc1ccc(Oc2ccccc2)cc1)N1CCN(c2ccccn2)CC1	0	-4	0	0.9	2.0%	-0.1
COc1ccc(/C=C/C(=O)OCn2c(SC)nnc(C)c2=O)cc1OC	6	41	-8	-3.2	0.0%	0.1
CCOC(=O)c1nn(-c2ccc(C)cc2)c(=O)cc1OCC(=O)Nc1cc(C)ccc1OC	0	-22	-16	-2.9	4.2%	-0.1
O=C(NN(c1ccccc1)c1ccccc1)c1ccc([N+](=O)[O-])o1	-7	-7	5	7.8	2.1%	-0.4
CC(Oc1ccc(Br)cc1)C(=O)N(Cc1nc(-c2ccccc2)no1)C(C)C (configuration not stated)	x	53	x	x	0.2%	3.8
O=C(CSc1nc2ccccc2s1)N1c2ccccc2Sc2ccccc21	-1	-8	-6	3.4	-1.3%	1.0
Cc1ccc(/C=C(\NC(=O)c2ccccc2)C(=O)NC(Cc2ccccc2)C(=O)O)cc1 (configuration not stated)	7	-1	-10	-4.9	3.5%	0.4
CCn1c(SCC(=O)N2c3ccccc3Sc3ccccc32)nnc1-c1ccco1	-17	11	10	2.2	x	1.9
O=C(CSc1ccc2ccccc2c1)N1CCN(c2ccc(O)cc2)CC1	1	-8	-6	1.4	-1.8%	0.1
COc1ccc(C)cc1NC(=O)c1nnn(CCc2ccccc2)c1N	7	17	-2	-1.6	14%	0.6
N#CC1(c2ccccc2)CCC(=O)N1c1ccccc1 (configuration not stated)	6	17	-18	-1.2	4.0%	-1.0
CCOc1ccc(C(=O)NCC(=O)NNC(=O)c2ccco2)cc1OCC	-1	9	-35	-1.2	-2.0%	-0.1
O=C(CCNS(=O)(=O)c1ccc(Br)s1)NCc1ccccc1Cl	5	17	-3	5.8	-1.5%	2.4

Rows are unselected, and some 1% of all compounds hit somewhere here.
